CHT block: inhibits the human high affinity choline transporter | Q9GZV3 | CHT-expressing cells, membrane potential dye, choline response; stronger effect = lower value | B-score at 10 µM | 310,000 compounds, 0.86% hits | AID 488975;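 active means B-score over 3 SD under the library average, and starting fluorescence ratio not unusually high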;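 further: choline stimulus applied at its EC90 after an EC20 pre-addition; B-score computed on integrated fluorescence ratio after choline addition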
Target sequence (Q9GZV3 whole entry, looked up): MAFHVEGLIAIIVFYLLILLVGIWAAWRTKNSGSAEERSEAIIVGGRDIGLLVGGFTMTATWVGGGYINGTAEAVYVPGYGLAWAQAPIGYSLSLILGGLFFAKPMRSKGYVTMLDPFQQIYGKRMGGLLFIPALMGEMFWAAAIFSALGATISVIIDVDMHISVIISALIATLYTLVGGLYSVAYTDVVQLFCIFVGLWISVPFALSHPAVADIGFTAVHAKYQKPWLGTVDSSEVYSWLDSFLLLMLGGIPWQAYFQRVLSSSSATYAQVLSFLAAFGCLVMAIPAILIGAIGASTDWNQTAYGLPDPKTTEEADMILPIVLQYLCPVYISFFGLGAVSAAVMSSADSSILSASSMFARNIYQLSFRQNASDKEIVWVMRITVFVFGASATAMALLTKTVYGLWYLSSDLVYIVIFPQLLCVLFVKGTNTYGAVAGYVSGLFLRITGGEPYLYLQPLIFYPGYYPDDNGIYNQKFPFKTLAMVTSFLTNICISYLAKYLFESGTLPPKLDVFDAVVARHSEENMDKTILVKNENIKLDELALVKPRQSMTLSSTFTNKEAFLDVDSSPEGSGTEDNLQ
Calls only; i = inactive. A portion of the library, and most or all hits are left out here.

SMILES	CHT block
CC(=O)Nc1ccc(C(c2c(O)c3ccccc3oc2=O)c2c(C)n(C)n(-c3ccccc3)c2=O)cc1 (centres undefined)	i
N#Cc1cc2c(nc1SCC(=O)Nc1cc(Cl)cc(Cl)c1)C1CCN2CC1	i
CCOP(=S)(NN(Cc1ccccc1)C(=O)c1ccccc1)OCC	i
Cn1cccc1/C=C1/C(=O)NC(=O)N(Cc2ccccc2)C1=O	i
O=C(Nc1ccncc1)c1cccn(Cc2ccccc2)c1=O	i
C=CP(=O)(O)c1ccccc1	i
Cc1cccc(CCNCc2cc3cc(C)cc(C)c3[nH]c2=O)c1	i
CCCCCCN=C(C)c1c(O)n(CCCC)c(=O)[nH]c1=O	i
CC1=C(C(=O)O)N2C(=O)C(NC(=O)Cc3ccccc3)C2SC1 (centres undefined)	i
C=CCn1c(O)c(C(C)=Nc2ccc(NC(C)=O)cc2)c(=O)[nH]c1=O	i
O=C(CCC(=O)N1CCC2(CC1)OCCO2)Nc1nnc(C(F)(F)F)s1	i
Brc1ccc(C2N3CCCN23)cc1 (centres undefined)	i
COc1ccc(CCn2c(O)c(/C=N/NC(=O)c3ccncc3)c(=O)[nH]c2=O)cc1OC	i
CCN1C[C@]2(COC)CC[C@H](O)[C@@]34C5C[C@H]6[C@H](O)C5[C@](O)(C[C@H]6OC)[C@@H]([C@H](OC)C23)[C@@H]14 (some centres undefined)	i
OC(CN1CC=C(c2ccccc2)CC1)c1ccccc1 (centres undefined)	i
CC12CNCC(C)(CNC1)C2O (centres undefined)	i
CCCCn1c(O)c(C=Nc2c(C)n(C)n(-c3ccccc3)c2=O)c(=O)[nH]c1=O	i
Fc1ccc(CNC2CN3CCC2CC3)cc1 (centres undefined)	i

Entries listed so far that contain an NH in an aromatic ring:
SMILES	CHT block
Cc1cccc(CCNCc2cc3cc(C)cc(C)c3[nH]c2=O)c1	i
CCCCCCN=C(C)c1c(O)n(CCCC)c(=O)[nH]c1=O	i
C=CCn1c(O)c(C(C)=Nc2ccc(NC(C)=O)cc2)c(=O)[nH]c1=O	i
COc1ccc(CCn2c(O)c(/C=N/NC(=O)c3ccncc3)c(=O)[nH]c2=O)cc1OC	i
CCCCn1c(O)c(C=Nc2c(C)n(C)n(-c3ccccc3)c2=O)c(=O)[nH]c1=O	i

Three entries from above, with bars between the fields:
smiles | CHT block
CC1=C(C(=O)O)N2C(=O)C(NC(=O)Cc3ccccc3)C2SC1 (centres undefined) | i
C=CCn1c(O)c(C(C)=Nc2ccc(NC(C)=O)cc2)c(=O)[nH]c1=O | i
O=C(CCC(=O)N1CCC2(CC1)OCCO2)Nc1nnc(C(F)(F)F)s1 | i
